Screening results deposited in PubChem BioAssay by National Center for Advancing Translational Sciences (NCATS).
SARS PLP yeast: qHTS of Yeast-based Assay for SARS-CoV PLP; S. cerevisiae expressing SARS-CoV PLpro, growth rescue; control for the full effect not named in the record; Potency, µM (highest dose often 32.9 µM), for inactives: at the top dose activity, positive = growth rescue; 0.19% of 330,000 active; AID 485353, 2010; further: 0% is about no effect; nearly all actives have a fitted effect of over 55% in size; growth read by luminescence after 48 h
Cruzain noTriton: qHTS Assay for Promiscuous and Specific Inhibitors of Cruzain (without detergent); Potency, µM, inactives show max response, negative = inhibition, usual class: inhibitors; purified cruzain, Z-FR-AMC fluorescence, no detergent; Cruzipain (Trypanosoma cruzi), P25779; AID 1476, 2009; 2.3% of 200,000 active; active means well fitted curve in the direction sought with a large enough effect; inconclusive means small, poorly fitted or top-dose-only effect, or another doubt; inactive means no such curve, though single readings can be large; an effect the other way counts as inactive or inconclusive;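 further: plate controls were enzyme without inhibitor for no effect and buffer without enzyme for full effect; nearly all actives have a fitted effect of over 40% in size; top concentration of the series not given in the record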
Target sequence (P25779 123-467 limits assumed): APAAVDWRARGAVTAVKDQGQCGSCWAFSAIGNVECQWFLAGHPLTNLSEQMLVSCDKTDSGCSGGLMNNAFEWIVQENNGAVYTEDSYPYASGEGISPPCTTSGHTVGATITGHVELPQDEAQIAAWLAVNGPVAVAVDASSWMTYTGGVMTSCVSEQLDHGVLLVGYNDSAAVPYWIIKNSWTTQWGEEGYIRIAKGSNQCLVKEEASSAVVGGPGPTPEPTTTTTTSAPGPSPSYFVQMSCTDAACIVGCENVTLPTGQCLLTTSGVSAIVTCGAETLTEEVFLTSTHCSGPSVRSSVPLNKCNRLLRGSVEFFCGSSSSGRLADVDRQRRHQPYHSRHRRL
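Detergent-free condition (0.00005% Triton X-100) in acetate buffer pH 5.5 with DTT. 1.5 nM enzyme and compound were pre-mixed 15 min, then 2 uM Z-FR-AMC substrate added; reaction progress from fluorescence change between first and third reads (60 s).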
Cruzain inh Det: qHTS Assay for Promiscuous and Specific Inhibitors of Cruzain (with detergent) | Cruzipain (Trypanosoma cruzi), P25779 | purified cruzain, Z-FR-AMC fluorescence, 0.01% Triton | Potency, µM, inactives show max response, negative = inhibition, most hits filed as inhibitors | 0.43% of 200,000 active; active means well fitted curve in the direction sought with a large enough effect; inconclusive means small, poorly fitted or top-dose-only effect, or another doubt; inactive means no such curve, though single readings can be large; an effect the other way counts as inactive or inconclusive;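 further: plate controls were neutral wells for no effect and buffer without enzyme for full effect; nearly all actives have a fitted effect of over 40% in size; top concentration of the series not given in the record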
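15 min RT preincubation of 1.5 nM cruzain with compound, then 2 uM Z-FR-AMC added; kinetic AMC fluorescence, 60 s delta. Triton X-100 0.01%, pH 5.5.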
RE007 growth inh: qHTS Assay for Inhibitors of the HIV-1 protein Vpr; S. pombe RE007 Vpr strain, BacTiter-Glo ATP luminescence, 24 h; control for the full effect not named in the record; Potency, µM (highest dose often 92.2 µM), inactives show at the highest dose activity change, negative = less growth; 0.21% of 360,000 active; AID 651644, 2012; active = well fitted falling curve with a large enough effect; inconclusive = small, poorly fitted or top-dose-only effect; inactive = no such curve, though single readings can be large or run the other way;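 further: on the % scale 0 is the no-effect control and ±100 the full control effect; nearly all actives have a fitted effect of over 50% in size; the assay follows cell death caused by Vpr and the record does not say whether a fall means rescue or toxicity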
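Fission yeast strain RE007, carrying one chromosomally integrated HIV-1 vpr copy, was seeded at OD 0.01 in PMG+AL medium with 23 nL pinned compound. After 24 h at 30 °C and 99% humidity, viability was read by BacTiter-Glo luminescence.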
StopGo reporter: High Throughput Screening for Foot and Mouth Disease Virus Antivirals; human cells with a luciferase reporter of 2A StopGo recoding; control for the full effect not named in the record; Potency, µM (titrated, usually from 57.9 µM), for inactives: at the highest dose signal change, negative = less light; 1.2% of 410,000 active; AID 1159524, 2015; active = well fitted falling curve with a large enough effect; inconclusive = small, poorly fitted or top-dose-only effect; inactive = no such curve, though single readings can be large or run the other way; tested in HEK293T cells; further: on the % scale 0 is the no-effect control and ±100 the full control effect; nearly all actives have a fitted effect of over 45% in size; luciferase light after 4 h
Lassa entry inh: qHTS for Inhibitors of binding or entry into cells for Lassa Virus; Lassa virus pseudotype entry inhibition, cell reporter; control for the full effect not named in the record; Potency, µM (titrated, usually from 37.9 µM), inactives show top-dose activity change, negative = inhibition, usual class: inhibitors; 1.2% of 300,000 active; AID 540256, 2011; active means well fitted inhibition curve with a large enough effect; inconclusive means small, poorly fitted or top-dose-only effect, or effect the other way; inactive means flat fitted curve, though single readings scatter; tested in HEK293 cells; further: on the % scale 0 is the no-effect control and ±100 the full control effect; nearly all actives have a fitted effect of over 50% in size; luciferase read-out
NS1 inh: qHTS Assay for Inhibitors of Influenza NS1 Protein Function | AID 2326, 2010 | 0.4% of 270,000 active | S. cerevisiae slowed by influenza A NS1, growth recovery by OD600 | Potency, µM (top dose mostly 46.1 µM), for the others: at the top dose activity, positive = more growth; further: actives are rising curves; nearly all actives have a fitted effect of over 50% in size
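Read-out: OD600 growth recovery of NS1-expressing budding yeast. Cells grown overnight at 30C in -URA glucose medium, washed, resuspended and diluted 1:100 in 2% galactose assay medium, pH 6.0. Same strain lacking NS1 served as positive control.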
Marburg entry inh: qHTS for inhibitors of binding or entry into cells for Marburg Virus. Marburg virus pseudotyped entry inhibition, cell reporter; control for the full effect not named in the record; about a third of the inactives were read at about 46 µM. Potency, µM (series often up to 37.8 µM), for inactives: top-dose activity change, negative = inhibition, hits mostly inhibitors. 1.8% of 300,000 active; active = well fitted inhibition curve with a large enough effect; inconclusive = small, poorly fitted or top-dose-only effect, or effect the other way; inactive = flat fitted curve, though single readings scatter; tested in HEK293 cells; about a fifth of its hits are not listed in these tables; further: on the % scale 0 is the no-effect control and ±100 the full control effect; luciferase read-out
An asterisk follows results filed as active; & = joins results of further samples; [ ] = another dose, or the depositor's remark. Unless noted, the call rests on the fitted dose curve; in most records, active means well fitted rising curve with a large enough effect; inconclusive means small, poorly fitted or top-dose-only effect; inactive means no such curve, though single readings can be large or run the other way. Potency means the concentration at half of the fitted maximal effect.

`Cc1csc(NC(=O)C2CSC3(C)CCC(=O)N23)n1` (stereo unspecified) gave SARS PLP yeast 1%, RE007 growth inh -3%, StopGo reporter 4%, Lassa entry inh 10%[46.1 µM], NS1 inh 13% and Marburg entry inh inconclusive.
`Cc1onc(-c2ccccc2)c1C(=O)Oc1ccccc1` gave SARS PLP yeast 1%, RE007 growth inh 10%, StopGo reporter -14%, Lassa entry inh -3%, NS1 inh -4% and Marburg entry inh 4%.
For Cc1ccc(C(=O)Nc2c(C)cc(-c3ccc(Cl)cc3)oc2=O)cc1 the results were SARS PLP yeast 0%, Cruzain noTriton -12%, Cruzain inh Det 1.1%, RE007 growth inh 20%, StopGo reporter inconclusive, Lassa entry inh 4%, NS1 inh -3% and Marburg entry inh inconclusive.
`COc1ccc(-c2nc(CS(=O)CC(=O)NCc3ccccc3)c(C)o2)cc1OC` (stereo unspecified) gave SARS PLP yeast 2%, RE007 growth inh -9%, StopGo reporter 8% and NS1 inh 2%.
`COc1ccc(Cl)cc1-n1c(=S)sc2c(=O)n(-c3ccc(F)cc3)c(SCC(=O)O)nc21` gave SARS PLP yeast 1%, RE007 growth inh -18%, StopGo reporter 4%, Lassa entry inh -7%, NS1 inh inconclusive and Marburg entry inh -3%.
Screening CCCCCCN1CCN(c2ccc(Cl)cc2)CC1 returned SARS PLP yeast -3%, RE007 growth inh -12%, StopGo reporter -11%, Lassa entry inh -6%[46.1 µM] and Marburg entry inh -2%[46.1 µM].
`Cc1cc(NC(=O)COC(=O)c2ccccc2NCCO)no1` gave SARS PLP yeast -1%, RE007 growth inh -11%, StopGo reporter 21%, Lassa entry inh 30% and Marburg entry inh 15%.
`CCOC(=O)c1[nH]c(C)c(CCC(=O)NCc2ccc(CC)cc2)c1C` gave Cruzain noTriton -11%, Cruzain inh Det -0.3%, StopGo reporter 2% and Lassa entry inh -28%[46.1 µM].
CCCCNC(=S)N1CCN(CC)CC1 was read as SARS PLP yeast 0%, RE007 growth inh 3%, StopGo reporter 1%, Lassa entry inh 2%[46.1 µM], NS1 inh 2% and Marburg entry inh 24%[46.1 µM].
O=C(O)CN=C(NS(=O)(=O)c1ccc(Cl)cc1)c1ccc(F)cc1 was read as SARS PLP yeast 1%, RE007 growth inh -13%, StopGo reporter -4%, Lassa entry inh 4%, NS1 inh -1% and Marburg entry inh -5%[46.1 µM].
O=C(Nc1cccc(Cl)c1N1CCOCC1)c1cccs1 was read as SARS PLP yeast 0%, RE007 growth inh -4%, StopGo reporter inconclusive and NS1 inh -18%.
`COc1cc(/C=C2/OC(=O)c3cc([N+](=O)[O-])ccc32)cc(OC)c1OC` gave RE007 growth inh 6%, StopGo reporter -24%, Lassa entry inh 0% and Marburg entry inh 2%.
Screening Cc1cccc(C)c1OCC(O)Cn1ccnc1C (stereo unspecified) returned SARS PLP yeast 3%, Cruzain noTriton 3%, Cruzain inh Det 2.9%, RE007 growth inh -9%, StopGo reporter -21% and NS1 inh inconclusive.
For CC(=O)C1=C(O)C(=O)N(c2ccc(Br)cc2)C1c1cccc([N+](=O)[O-])c1 (stereo unspecified) the results were SARS PLP yeast 1%, RE007 growth inh 12%, StopGo reporter -2% and NS1 inh 19%.
`Cc1cc(S(=O)(=O)Nc2ccc(C(=O)NCC(c3ccccc3)N(C)C)cc2)ccc1F` (stereo unspecified) gave SARS PLP yeast -1%, RE007 growth inh -22%, StopGo reporter -13%, Lassa entry inh -3%, NS1 inh 9% and Marburg entry inh -28%.
Screening CCOc1ccc(NC(=O)CC2C(=O)N(c3ccc(F)cc3)C(=O)N2CCc2sccc2C)cc1 (stereo unspecified) returned Cruzain noTriton 1%, Cruzain inh Det -5.8%, StopGo reporter -13%, Lassa entry inh inconclusive and Marburg entry inh inconclusive.
CC1CCCCN1C(=O)CSc1nc2ncccc2[nH]1 (stereo unspecified) was read as SARS PLP yeast -5%, RE007 growth inh 1%, StopGo reporter 16% and NS1 inh 7%.
Screening COc1cccc(CC(=O)Nc2ccc(-c3csc(C)n3)cc2)c1 returned SARS PLP yeast -1%, RE007 growth inh -6%, StopGo reporter 38%[activator], Lassa entry inh 0%, NS1 inh -8% and Marburg entry inh 14%[46.1 µM].
`COC(=O)c1sc2cccc(F)c2c1S(=O)(=O)NC(C)c1ccccc1` (stereo unspecified) gave Cruzain noTriton -12%, Cruzain inh Det -8.9%, StopGo reporter 4% and Lassa entry inh 5%[46.1 µM].
Screening CC(C)Cc1nc(N2CCN(C(=O)c3ccccc3)CC2)c(C#N)c2c1CCC2 returned SARS PLP yeast 4%, Cruzain noTriton 2%, Cruzain inh Det -6.5%, RE007 growth inh 17%, StopGo reporter inconclusive, Lassa entry inh 6.5µM*, NS1 inh 7% and Marburg entry inh inconclusive.
`Cc1ccc(N2CC(C(=O)Nc3nnc(SCC(N)=O)s3)CC2=O)cc1C` (stereo unspecified) gave SARS PLP yeast -2%, RE007 growth inh 5%, StopGo reporter -6%, Lassa entry inh 18%, NS1 inh -1% and Marburg entry inh -12%.
CCc1ccccc1NC(=O)[C@@H]1CCC(=O)N1C1OC(=O)c2ccccc21 (stereo partly specified) was read as SARS PLP yeast 6%, RE007 growth inh 6%, StopGo reporter -9% and NS1 inh -7%.
`Cc1cccc(C)c1NC(=O)Nc1cccs1` gave SARS PLP yeast 21%, Cruzain noTriton -5%, Cruzain inh Det 5.1%, RE007 growth inh -7%, StopGo reporter 12%, Lassa entry inh -2%, NS1 inh 8% and Marburg entry inh 15%.
O=C1/C(=C\c2cccs2)Sc2ccc3ccccc3c21 was read as SARS PLP yeast -1%, Cruzain noTriton inconclusive, Cruzain inh Det -2.4%, RE007 growth inh -2%, StopGo reporter -22%, Lassa entry inh inconclusive, NS1 inh -5% and Marburg entry inh inconclusive.
`Cc1cc(-c2ccc([N+](=O)[O-])cc2)nc2ccccc12` gave SARS PLP yeast 0%, RE007 growth inh -14%, StopGo reporter 26%, Lassa entry inh 5% and Marburg entry inh -19%[46.1 µM].
Cc1ccccc1C1C2=C(Nc3[nH]n(-c4ccccc4)c(=O)c31)c1ccccc1C2=O (stereo unspecified) was read as SARS PLP yeast -2%, Cruzain noTriton inconclusive, Cruzain inh Det -27%, Lassa entry inh 9%, NS1 inh 11µM* and Marburg entry inh 8%.
Screening COC(=O)c1cccnc1Oc1ccccc1 returned SARS PLP yeast 0%, RE007 growth inh -5%, StopGo reporter -4%, Lassa entry inh 9%[46.1 µM], NS1 inh 9% and Marburg entry inh 2%[46.1 µM].
Screening CCCOc1ccc2oc(=O)c3c(c2c1)CCCN3C(=O)CN1CCCC(C(=O)OCC)C1 (stereo unspecified) returned SARS PLP yeast 3%, Cruzain noTriton -12%, Cruzain inh Det -1.6%, RE007 growth inh -10%, StopGo reporter inconclusive, Lassa entry inh -18%, NS1 inh -19% and Marburg entry inh inconclusive.
Screening O=[N+]([O-])c1ccc(C(c2sc3nc(-c4ccco4)nn3c2O)N2CCN(c3cccc(Cl)c3)CC2)cc1 (stereo unspecified) returned Cruzain noTriton inconclusive, Cruzain inh Det -3.9%, StopGo reporter 14% and Lassa entry inh 18%[46.1 µM].
Screening NS(=O)(=O)c1ccc(S(=O)(=O)NCCc2ccccc2)cc1 returned SARS PLP yeast inconclusive, Cruzain noTriton -2%, Cruzain inh Det 3.1%, RE007 growth inh -25%, StopGo reporter 22%, Lassa entry inh 20%, NS1 inh -61% and Marburg entry inh -15%.
`Cc1cc(C)n(C(=O)CNC(=O)c2cccc(Br)c2)n1` gave SARS PLP yeast -11%, RE007 growth inh -3%, StopGo reporter 8%, Lassa entry inh -3%[46.1 µM], NS1 inh -12% and Marburg entry inh 12%[46.1 µM].
For COCCN(Cc1ccccc1)C(=O)c1cccc(S(=O)(=O)N2CCN(c3ccccc3)CC2)c1 the results were SARS PLP yeast 2%, RE007 growth inh -19%, StopGo reporter -23%, Lassa entry inh inconclusive and Marburg entry inh inconclusive.
Screening CSc1ccc(S(=O)(=O)N2c3ccccc3CC2C)cc1 (stereo unspecified) returned SARS PLP yeast -4%, RE007 growth inh -11%, StopGo reporter -15% and NS1 inh -2%.
`CCN(CC)CCn1c2ccccc2c2n[nH]c(=S)nc21` gave SARS PLP yeast inconclusive, RE007 growth inh -19%, StopGo reporter -13%, Lassa entry inh inconclusive, NS1 inh -7% and Marburg entry inh -9%[46.1 µM].
CCOc1ccc(NC(=O)N2CCC(C(N)=O)(N3CCCCC3)CC2)cc1 was read as SARS PLP yeast 0%, Cruzain noTriton 7%&10%, Cruzain inh Det -0.3%&4.3%, RE007 growth inh 19%, StopGo reporter -3%&17%, Lassa entry inh 15%[46.1 µM], NS1 inh -2% and Marburg entry inh 5%[46.1 µM].
`CCN(CC)CCNS(=O)(=O)c1ccc(/C=C/C(=O)O)cc1` gave SARS PLP yeast 0%, RE007 growth inh 6%, StopGo reporter -10%, Lassa entry inh 22%[46.1 µM] and Marburg entry inh 8%[46.1 µM].
For COc1ccc(OC)c(N/C(=N\c2nc(C)cc(C)n2)NC(=O)c2ccco2)c1 the results were SARS PLP yeast 3%, Cruzain noTriton inconclusive, Cruzain inh Det 1.5%, NS1 inh 1% and Marburg entry inh 2%.
O=C(CSc1nccc(=O)[nH]1)N1CCOCC1 was read as SARS PLP yeast 1%, RE007 growth inh -2%, StopGo reporter 3% and NS1 inh 4%.
Screening COC(=O)c1cc2c([nH]c3ccccc32)c(C)n1 returned SARS PLP yeast -3%, Cruzain noTriton inconclusive, Cruzain inh Det -8.9%, NS1 inh -17% and Marburg entry inh 6%.
Screening COCCNC(=O)CSc1ccc(Cl)cc1 returned SARS PLP yeast -3%, RE007 growth inh 4%, StopGo reporter 3%, Lassa entry inh 9%, NS1 inh -9% and Marburg entry inh 8%[46.1 µM].
